Screens deposited in PubChem BioAssay by National Center for Advancing Translational Sciences (NCATS).
CtBP-E1A blk = qHTS Assay for Inhibitors of the CtBP/E1A Interaction; activity change, % (concentration not given with the values); AlphaScreen GST-E1A/His-CtBP binding, 1536-well; stronger effect = lower value; control for the full effect not named in the record; 340,000 tested, 0.49% active; in the data active means activity change below about -65%; inconclusive means about -30% to -65%; inactive means above about -30%; further: on the % scale 0 is the no-effect control and ±100 the full control effect
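AlphaScreen with 125 nM GST-E1A and 125 nM His-CtBP (5X stocks) in Tris pH 8.0, 300 mM NaCl, BSA, Tween 20, TCEP. Compounds preincubated 2 h at 37 deg C, then glutathione donor/nickel acceptor beads added for 1 h at 37 deg C in dark.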
TRPML1 agonist = qHTS for Agonists of the Human Mucolipin Transient Receptor Potential 1 (TRPML1) | activation, % (concentration not given with the values) | TRPML1-expressing cells, Ca2+ dye fluorescence, FDSS; host cell line not named in the record; reference of the full effect not given here | Mucolipin-1 (Homo sapiens), Q9GZU1 | 410,000 tested, 0.12% active | AID 624414, 2012; in the data active = activation above about 50%; inconclusive = about 30% to 50%; inactive = below about 30%; further: 0% is about no effect; the text of the record puts the active cut at 80%
Target sequence (Q9GZU1 whole entry, looked up): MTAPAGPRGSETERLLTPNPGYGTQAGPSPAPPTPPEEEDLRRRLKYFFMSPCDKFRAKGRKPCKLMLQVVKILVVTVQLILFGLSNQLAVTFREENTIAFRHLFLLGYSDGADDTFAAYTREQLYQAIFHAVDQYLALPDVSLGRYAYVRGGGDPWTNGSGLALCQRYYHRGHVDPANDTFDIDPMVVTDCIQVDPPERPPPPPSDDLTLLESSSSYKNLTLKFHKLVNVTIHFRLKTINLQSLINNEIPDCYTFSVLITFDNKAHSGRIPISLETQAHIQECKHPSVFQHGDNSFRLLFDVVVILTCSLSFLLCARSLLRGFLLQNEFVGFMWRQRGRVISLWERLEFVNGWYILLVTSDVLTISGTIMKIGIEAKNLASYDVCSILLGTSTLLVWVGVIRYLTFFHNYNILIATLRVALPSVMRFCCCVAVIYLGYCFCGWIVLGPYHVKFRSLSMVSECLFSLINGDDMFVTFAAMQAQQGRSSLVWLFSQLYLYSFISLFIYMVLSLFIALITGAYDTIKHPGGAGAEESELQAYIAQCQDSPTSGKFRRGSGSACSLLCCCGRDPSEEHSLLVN
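Calcium fluorescence on an FDSS kinetic reader gave the read-out. Tet-induced TRPML1-DL cells were plated overnight, dye-loaded (Ca8 with quencher, 45-90 min, room temperature, dark), then read 110 s after compound addition, and again 110 s after 4uM final 54-4 (EC80).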
D2 potentiator = Beta-Arrestin HTS for Positive Allosteric Modulators of the Human D2 Dopamine Receptor: Potentiators. DiscoveRx D2 beta-arrestin cells, luminescence, 90 min; 100% = 57 uM dopamine signal. potentiation, % (test concentration not listed). 360,000 tested, 0.23% active; active = potentiation of 50% or more; inconclusive = 30% to 50%; inactive = 30% or less;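 further: compound concentration not given in the record; tested on top of an EC20 dose of dopamine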
Target sequence (P14416 whole entry, looked up): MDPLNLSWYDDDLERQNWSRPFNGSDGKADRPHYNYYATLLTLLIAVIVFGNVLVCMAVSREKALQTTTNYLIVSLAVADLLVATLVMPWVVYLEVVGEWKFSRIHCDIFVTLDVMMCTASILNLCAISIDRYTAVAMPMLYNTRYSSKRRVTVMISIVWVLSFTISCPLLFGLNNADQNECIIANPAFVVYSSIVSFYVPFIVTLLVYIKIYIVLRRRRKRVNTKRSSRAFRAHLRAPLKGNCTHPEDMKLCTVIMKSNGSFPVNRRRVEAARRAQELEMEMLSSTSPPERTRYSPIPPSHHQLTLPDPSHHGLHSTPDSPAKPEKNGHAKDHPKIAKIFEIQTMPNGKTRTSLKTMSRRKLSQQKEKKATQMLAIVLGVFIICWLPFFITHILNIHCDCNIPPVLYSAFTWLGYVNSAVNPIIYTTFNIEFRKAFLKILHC
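PathHunter D2 cells, attached overnight at 37 deg C, received compound in DMSO plus dopamine at EC20 (50 nM final) for 90 min at 37 deg C. Beta-arrestin recruitment was read as luminescence after 1 h with detection reagent at ambient temperature.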
TRPV1 PAM = HTS Assay for Compounds that Act as Potentiators of the Vanilloid Receptor 1; TRPV1-expressing cells, Fluo-8 calcium influx, capsaicin EC20 potentiation; host cell line not named in the record; control for the full effect not named in the record; potentiation, % at 8.33 µM; 320,000 tested, 0.02% active; AID 540277, 2011; active means potentiation above 80%; inconclusive means 30% to 80%; inactive means below 30%; further: 0% is about no effect
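Cells expressing TRPV1 were dye-loaded with Fluo-8 and read kinetically: 10 s baseline, 3 min after compound (agonist portion), then 2 min after EC20 capsaicin (allosteric enhancer portion). Calcium-bound dye fluorescence at 480/520 nm.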
TRPML1 inh = qHTS for Inhibitors of the Human Mucolipin Transient Receptor Potential 1 (TRPML1) | Mucolipin-1 (Homo sapiens), Q9GZU1 | TRPML1-inducible cells, Ca2+ dye fluorescence, FDSS; stronger effect = lower value; inhibition of EC80 agonist-evoked calcium signal | activity change, negative = inhibition, % (test concentration not listed) | 390,000 tested, 0.02% active | AID 624415, 2012; in the data active means activity change below about -50%; inconclusive means about -30% to -50%; inactive means above about -30%;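 further: stimulus is agonist 54-4 at its EC80 concentration; on the % scale 0 is the no-effect control and ±100 the full control effect; compound concentration not given in the record; the text of the record puts the active cut at -80%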
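TRPML1-DL cells, Tet-induced overnight (~16 h, 37 °C) at 1,500 cells/well, were loaded with Ca8 no-wash dye plus quencher for 45-90 min at room temperature. Compounds were pinned during FDSS kinetic reading; agonist 54-4 at EC80 (4 uM final) then added.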
Six1-Eya2 blk = qHTS Assay for Inhibitors of the Six1/Eya2 Interaction; Homeobox protein SIX1 (Homo sapiens) + Protein phosphatase EYA2 (Homo sapiens), …; AlphaScreen GST-Six1/His-Eya2 binding, biochemical; stronger effect = lower value; control for the full effect not named in the record; activity change, % (concentration not given with the values); 360,000 tested, 0.56% active; in the data active = activity change below about -65%; inconclusive = about -30% to -65%; inactive = above about -30%; further: on the % scale 0 is the no-effect control and ±100 the full control effect
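Six1/Eya2 binding was read as AlphaScreen signal after compounds were pinned into GST-Six1 plus His-tagged Eya2 (5X stock 250/500 nM) in pH 8.0 Tris/NaCl/TCEP buffer, beads added, then incubated 1 h, 37 C, dark.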
An asterisk follows results filed as active; u = inconclusive; x = no result given; & = joins results of further samples.

entry	SMILES	CtBP-E1A blk	TRPML1 agonist	D2 potentiator
1	COC(=O)CSc1nnc(-c2ccccn2)n1Cc1ccco1	-3	0.2	0
2	Cc1nnsc1C(=O)N1CCCC(N2CCN(c3ccc(F)cc3)CC2)C1 (stereo not given)	4	-0.1	-5
3	CCc1cc(-c2n[nH]c(=S)n2CC)cs1	-20	1.1	-11
4	O=C(N/N=C/c1ccc(O)cc1O)c1ccc(CN2C(=O)c3cccc4cccc2c34)cc1	u	0.8	-4
5	ON=C1c2ccccc2-c2ccc(F)cc21	0	2.0	5
6	CCCCCOC(=O)CCN1C(=O)/C(=C2\SC(=S)N(CCC(=O)OCCCCC)C2=O)SC1=S	2	0.0	-4
7	COc1ccc(-c2cc(NC(C)=O)c3ncc(-c4ccccc4)n3c2)cc1OC	-11	-0.9	-7
8	COc1ccc(C(=O)NC(=S)NCc2ccco2)cc1Br	-4	-0.3	-25

entry	TRPV1 PAM	TRPML1 inh	Six1-Eya2 blk
1	-3	7	4
2	4	2	1
3	-1	18	0
4	8	21	u
5	x	-2	-7
6	4	8	2
7	x	x	-19
8	4	-2	-11

(more compounds)
entry	SMILES	CtBP-E1A blk	TRPML1 agonist	D2 potentiator
9	CCc1nnc(NC(=O)c2nc(S(=O)(=O)Cc3ccc(C)cc3)ncc2Cl)s1	-1	-0.2&-0.3	-10
10	CCCCn1c(SCC(=O)Nc2ccc3c(c2)CCC3)nc2ccccc2c1=O	-1	3.9	-5
11	O=C(CSc1nnc(-c2ccccc2F)o1)OCc1ccccc1	-23	2.8	-11
12	O=C(C1=C(O)C(=O)N(Cc2ccco2)C1c1cccnc1)c1cc2ccccc2o1 (stereo not given)	-6	1.2	23
13	COC(=O)CCC(=O)Nc1cccc2ccccc12	1	-0.2	15
14	CSCC[C@H](N)C(=O)NC[C@H]1O[C@@H](n2cnc3c(N)ncnc32)[C@H](O)[C@@H]1O	3	-0.4	-11
15	CCc1nccn1S(=O)(=O)c1ccccc1[N+](=O)[O-]	1	0.5	-1
16	CCOC(=O)C(Cc1ccccc1)c1ccnc2nc(N)nn12 (stereo not given)	x	0.8	-9

entry	TRPV1 PAM	TRPML1 inh	Six1-Eya2 blk
9	4	27&-4	-20
10	8	11	5
11	-10	9	-5
12	1	15	-8
13	14	20	2
14	x	-12	0
15	-11	7	7
16	0	20	3

Later entries:
entry	SMILES	CtBP-E1A blk	TRPML1 agonist	D2 potentiator
17	COC(=O)c1ccc(COC(=O)[C@@H]2CC(O)CN2S(=O)(=O)c2ccccc2[N+](=O)[O-])cc1 (stereo not given in full)	-19	-0.4	4
18	CNS(=O)(=O)c1ccc(NC(=O)c2ccc(Cl)cc2Cl)cc1	13	0.4	-2
19	O=[N+]([O-])c1cccnc1NCCc1c[nH]c2ccccc12	-5	2.7	-1
20	COCCNC(=S)N/N=C/c1c2ccccc2cc2ccccc12	0	2.1	-10
21	COc1cc(/C=N/NC(=O)c2ccc(COc3ccccc3Cl)o2)cc(Br)c1O	0	0.9	16
22	Cc1cc(-n2cnnn2)cc(C)c1S(=O)(=O)N(C)c1ccccc1	8	-0.1	2
23	O=C(c1ccccc1)C1CC1c1ccccc1 (stereo not given)	1	0.8	-11
24	CCOC(=O)c1c(C)oc2cc(Cl)c(O)c(CN(C)C)c12	3	1.2	0

entry	TRPV1 PAM	TRPML1 inh	Six1-Eya2 blk
17	1	-6	-3
18	-17	-12	-4
19	-4	13	-7
20	8	4	-8
21	-5	-17	-23
22	3	18	-2
23	x	5	26
24	-12	-21	3

Next part
entry	SMILES	CtBP-E1A blk	TRPML1 agonist	D2 potentiator
25	CCOC(=O)Cc1ccc(Nc2nc(NC)nc3ccsc23)cc1	-10	-0.9	-19
26	Cc1nc(CN(C)C(=O)c2ccccc2OC2CCN(S(C)(=O)=O)CC2)cs1	0	0.0	3
27	COc1cc(/C=C/C(=O)OCC(=O)c2ccc(S(=O)(=O)N3CCCCC3)cc2)cc(OC)c1OC	0	1.2	-26
28	N#Cc1cc2ccccc2nc1SCc1cccnc1	20	0.1	-9
29	CC(CCc1ccc(O)cc1)NCCC(c1ccccc1)c1ccccc1 (stereo not given)	-29	3.4	-27
30	CN(C)c1cc[n+](CC(=O)c2ccc(-c3ccccc3)cc2)cc1	3	1.9	-7
31	O=c1c2cn[nH]c2[nH]c(=S)n1-c1ccccc1F	1	-0.1	-3
32	CC(=O)N1c2ccccc2N(Cc2ccc([N+](=O)[O-])cc2)C(=O)C1(C)C	-3	7.6	-3

entry	TRPV1 PAM	TRPML1 inh	Six1-Eya2 blk
25	x	x	-7
26	-1	-13	4
27	0	-5	-1
28	-15	20	12
29	-9	52	-11
30	8	-9	3
31	-3	-9	2
32	8	-7	-1

The list continues.
entry	SMILES	CtBP-E1A blk	TRPML1 agonist	D2 potentiator
33	Cc1ccc(/C=N/N=C2/NC(=O)C(CC(=O)Nc3ccc(Cl)cc3)S2)o1 (stereo not given)	-1	-0.2	1
34	CCC(c1nc2ccccc2c(=O)n1-c1nc2ccccc2s1)N1C(=O)c2ccccc2C1=O (stereo not given)	-18	1.7	-19
35	CC1(C(=O)NCC2CC2)CCN1C(=O)C/C=C/c1ccccc1 (stereo not given)	5	0.0	-7
36	CC1Cc2ccccc2N1Cc1nc2scc(-c3cccs3)c2c(=O)[nH]1 (stereo not given)	-6	0.2	7
37	NC(=S)NN=C1c2ccccc2-c2ccccc21	x	1.5	-8
38	Cc1ccccc1-c1ccccc1N	6	0.0	-2
39	COc1ccc(NC(=O)C2CCN(C(=O)C3CC(=O)N(c4ccc(C)cc4)C3)CC2)c(OC)c1 (stereo not given)	8	-0.7	-7
40	CSc1ncnc2c1ncn2CCCNCc1ccc2c(c1)OCO2	-1	-0.2	-1

entry	TRPV1 PAM	TRPML1 inh	Six1-Eya2 blk
33	-10	-12	-5
34	-12	27	1
35	x	-11	0
36	21	8	-7
37	0	-2	u
38	3	-10	10
39	u	31	-3
40	x	20	2

Remaining list, next part
entry	SMILES	CtBP-E1A blk	TRPML1 agonist	D2 potentiator
41	COc1ccc(C=O)cc1COc1ccc([N+](=O)[O-])c(C)c1	-13	2.3	1
42	COC(=O)C1CCCN1S(=O)(=O)c1ccc([N+](=O)[O-])cc1 (stereo not given)	4	0.2	2
43	CCOC(=O)c1sc2nc(C)[nH]c(=O)c2c1C	-8	0.1	-8
44	CCN(CC)c1ccc(NC(=O)CN2CCN(c3ccccn3)CC2)cc1	-21	-0.8	-9
45	COc1cc(C(=O)Oc2ccccc2)ccc1OCc1c(C)noc1C	1	2.6	0
46	CCOc1ccc(NC(=O)C2CCCN(S(=O)(=O)c3c(C)nn(C)c3C)C2)cc1 (stereo not given)	-3	0.2	-5
47	CC(C)n1c(CN(C)Cc2ccccc2)nc2c1c(=O)n(C)c(=O)n2C	7	1.4	13
48	CCCCCC(=O)Nc1ccc(-c2csc(N)n2)cc1	4	-0.4	-4

entry	TRPV1 PAM	TRPML1 inh	Six1-Eya2 blk
41	4	17	-6
42	-4	11	1
43	-11	-15	-4
44	-8	-2	-16
45	6	25	4
46	-1	-3	3
47	3	8	2
48	4	45	-8

Additional results.
entry	SMILES	CtBP-E1A blk	TRPML1 agonist	D2 potentiator
49	COc1ccc(CNC(C)C23CC4CC(CC(C4)C2)C3)c(OC)c1OC (stereo not given)	x	2.4	-35
50	O=C(COC(=O)CCSc1ccc(Cl)cc1)NCc1ccc(Cl)cc1	7	-0.4	5
51	CCC(C)(CC(=O)N(C)CCC#N)c1ccccc1 (stereo not given)	7	-0.4	-3
52	CC(=O)c1ccc(OCCCC(=O)Nc2ccc(Cl)c(S(=O)(=O)N3CCOCC3)c2)cc1	x	-0.3	-2
53	O=C(CSc1nnc(CNc2ccc(F)cc2)n1Cc1ccco1)N1CCCC1	2	1.0	2
54	CC(=O)N(CN1C(=O)c2ccc([N+](=O)[O-])cc2C1=O)c1cccc(C(=O)O)c1	2	-0.1	8
55	O=C(NC1CC1)C1=C[C@@H](c2ccc3c(c2)OCO3)C[C@@H](OCCCCO)O1	3	-0.4	-5
56	O=C(Nc1cccc(N2CCCC2)c1)c1cccs1	5	0.4	-15

entry	TRPV1 PAM	TRPML1 inh	Six1-Eya2 blk
49	-3	-4	-1
50	-3	-13	4
51	-10	4	4
52	x	8	-5
53	4	-14	0
54	3	-22	1
55	u	-4	2
56	-8	25	-24

(more compounds)
entry	SMILES	CtBP-E1A blk	TRPML1 agonist	D2 potentiator
57	COc1ccc(S(=O)(=O)Nc2ccc3c(c2)C(=O)N([C@H](C)CO)C[C@H](C)[C@@H](CN(C)C(=O)NC2CCCCC2)O3)cc1	x	-0.4	-5
58	O=C(N/N=C(/c1ccccc1)c1ccncc1)c1ccc2c(c1)OCO2	-2	-0.2	-9
59	COc1cc(C(=O)Nc2ccc3c(c2)C(=O)c2ccccc2C3=O)cc(OC)c1OC	19	-0.3	-1
60	Cc1nonc1C(=O)N/N=C/c1ccc(O)c(O)c1	3	0.3	24

entry	TRPV1 PAM	TRPML1 inh	Six1-Eya2 blk
57	x	-4	-2
58	3	13	-2
59	12	3	0
60	23	2	1

Structures above with an aryl methoxy group:
entry	SMILES	CtBP-E1A blk	TRPML1 agonist	D2 potentiator
7	COc1ccc(-c2cc(NC(C)=O)c3ncc(-c4ccccc4)n3c2)cc1OC	-11	-0.9	-7
8	COc1ccc(C(=O)NC(=S)NCc2ccco2)cc1Br	-4	-0.3	-25
21	COc1cc(/C=N/NC(=O)c2ccc(COc3ccccc3Cl)o2)cc(Br)c1O	0	0.9	16
27	COc1cc(/C=C/C(=O)OCC(=O)c2ccc(S(=O)(=O)N3CCCCC3)cc2)cc(OC)c1OC	0	1.2	-26
39	COc1ccc(NC(=O)C2CCN(C(=O)C3CC(=O)N(c4ccc(C)cc4)C3)CC2)c(OC)c1 (stereo not given)	8	-0.7	-7
41	COc1ccc(C=O)cc1COc1ccc([N+](=O)[O-])c(C)c1	-13	2.3	1
45	COc1cc(C(=O)Oc2ccccc2)ccc1OCc1c(C)noc1C	1	2.6	0
49	COc1ccc(CNC(C)C23CC4CC(CC(C4)C2)C3)c(OC)c1OC (stereo not given)	x	2.4	-35
57	COc1ccc(S(=O)(=O)Nc2ccc3c(c2)C(=O)N([C@H](C)CO)C[C@H](C)[C@@H](CN(C)C(=O)NC2CCCCC2)O3)cc1	x	-0.4	-5
59	COc1cc(C(=O)Nc2ccc3c(c2)C(=O)c2ccccc2C3=O)cc(OC)c1OC	19	-0.3	-1

entry	TRPV1 PAM	TRPML1 inh	Six1-Eya2 blk
7	x	x	-19
8	4	-2	-11
21	-5	-17	-23
27	0	-5	-1
39	u	31	-3
41	4	17	-6
45	6	25	4
49	-3	-4	-1
57	x	-4	-2
59	12	3	0
